# Sfp inh – Sfp phosphopantetheinyl transferase inhibition. Potency, µM, for inactives: max response, negative = inhibition, most hits filed as inhibitors. AID 1490. hit rate 3.5% among 310,000. Q9F4F7. Biochemical Sfp PPTase activity, qHTS; active = well fitted inhibition curve with a large enough effect; inconclusive = small, poorly fitted or top-dose-only effect, or another doubt; inactive = no such curve, though single readings can be large or run the other way;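 note: the enzyme is Sfp with the accession as filed and its product quenches rhodamine fluorescence; potency is the fitted concentration of half-maximal effect; 0% = enzyme reaction without inhibitor and -100% = no enzyme wells; top concentration of the series not given in the record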
#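 Fluorescence-quenching assay: 15 nM Sfp-PPTase preincubated 15 min at room temperature with compound, then 5 uM rhodamine-CoA and 12.5 uM BHQ-2-labelled YbbR peptide added. Fluorescence (ex 525/em 598 nm) read at start and after 30 min; difference gives rate.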
# Menin MLL FP FL – menin-MLL binding inhibition, fluorescein peptide | Fluorescence polarization, fluorescein-MLL peptide displacement from menin | FP activity change, % at 61.4 µM | 290,000 tested, under 10 active | AID 1766; inconclusive = falling polarisation curve, or a change in total fluorescence; inactive = total fluorescence flat and polarisation flat or rising; no compound was filed as active; the % refers to the polarisation; negative = inhibition;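 note: % of control where 0% means no effect; inhibitors lower the polarisation; unlabelled MLL peptide was the positive control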
# gsp ag – agonists of gsp mutant (McCune-Albright syndrome); gsp mutant cells, cAMP HTRF, 30 min; control for the full effect not named in the record; Potency, µM (highest dose often 76.9 µM), inactives show top-dose activation (cAMP increase), actives largely listed as activators; hit rate 0.13% among 340,000; active = well fitted activation curve with a large enough effect; inconclusive = small, poorly fitted or top-dose-only effect, or another doubt; inactive = no such curve, though single readings can be large or run the other way; cell line not stated here;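 note: phosphodiesterase inhibitor Ro 20-1724 added with compounds to block cAMP breakdown; potency is the fitted concentration of half-maximal effect; nearly all actives have a fitted effect of over 60% in size; about a fifth of the inactives were tested at one dose only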
#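 Cells stably selected in G418 were plated at 2000/well, grown 16-24 hr, then given compounds in DMSO with the PDE inhibitor […] (300 uM solution added) for 30 min at 37C; cAMP was read by HTRF.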
# gsp antagonist – antagonizes gsp, the McCune-Albright syndrome mutation | gsp-mutant cells, cAMP HTRF, 30 min; control for the full effect not named in the record | Potency, µM (doses to about 76.9 µM), for the others: at the top dose activity change, negative = inhibition, usual class: inhibitors | hit rate 0.4% among 340,000 | AID 624288; active = falling curve of any shape with a large fitted effect; inconclusive = falling curve, mostly with a smaller effect; inactive = flat or rising curve; cell line not stated here;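 note: intracellular cAMP measured with PDE inhibitor Ro 20-1724 present during compound exposure; potency is the fitted concentration of half-maximal effect; % is set by controls: 0 for no effect and ±100 for the full control effect; nearly all actives have a fitted effect of over 65% in size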
#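 Measurement of cellular cAMP by homogeneous time-resolved fluorescence following a 30 min compound exposure at 37C. The PDE inhibitor […] was present throughout; the assay buffer was DPBS with 0.05% BSA and 0.005% Tween 20.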
# D2 potentiator – positive allosteric modulators of human D2 dopamine receptor; potentiation, % (no concentration beside the values); DiscoveRx D2 beta-arrestin cells, luminescence, 90 min; 100% = 57 uM dopamine signal; hit rate 0.23% among 360,000; AID 624464; P14416; active = potentiation of 50% or more; inconclusive = 30% to 50%; inactive = 30% or less;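 note: compound concentration not given in the record; tested on top of an EC20 dose of dopamine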
# Target sequence (P14416 whole entry, looked up): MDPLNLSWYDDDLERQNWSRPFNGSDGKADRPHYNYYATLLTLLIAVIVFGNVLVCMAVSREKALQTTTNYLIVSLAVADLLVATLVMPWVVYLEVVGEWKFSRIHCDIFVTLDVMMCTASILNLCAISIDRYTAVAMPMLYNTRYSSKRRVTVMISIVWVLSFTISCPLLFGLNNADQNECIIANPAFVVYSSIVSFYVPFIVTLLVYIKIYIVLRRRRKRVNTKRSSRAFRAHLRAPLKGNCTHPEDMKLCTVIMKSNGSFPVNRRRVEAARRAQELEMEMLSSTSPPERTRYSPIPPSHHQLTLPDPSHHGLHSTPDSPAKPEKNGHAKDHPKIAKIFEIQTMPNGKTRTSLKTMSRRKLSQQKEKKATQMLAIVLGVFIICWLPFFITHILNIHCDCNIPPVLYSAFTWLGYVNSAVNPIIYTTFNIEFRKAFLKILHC
#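 PathHunter beta-arrestin assay in DiscoveRx D2 cells. Compounds were added with an EC20 of dopamine (50 nM final) for 90 min at 37 deg C. Luminescence was read 1 h after detection reagent, with 57 uM dopamine as the EC100 control.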
# ClpP mod – qHTS Assay for Activators of ClpP | ATP-dependent Clp protease proteolytic subunit (Bacillus subtilis (strain 168)), P80244 | purified B. subtilis ClpP, FRET peptide cleavage, 20 min | Potency, µM (top dose mostly 57.5 µM), inactives show at the top dose activity change, negative = active | hit rate 1.9% among 340,000 | AID 651965, 2013; active = well fitted falling curve with a large enough effect; inconclusive = small, poorly fitted or top-dose-only effect; inactive = no such curve, though single readings can be large or run the other way; note: potency is the fitted concentration of half-maximal effect; the source files actives as falling curves though it sought activators and does not explain the sign; nearly all actives have a fitted effect of over 65% in size; many hits overshoot -100%
# Target sequence (P80244 whole entry, looked up): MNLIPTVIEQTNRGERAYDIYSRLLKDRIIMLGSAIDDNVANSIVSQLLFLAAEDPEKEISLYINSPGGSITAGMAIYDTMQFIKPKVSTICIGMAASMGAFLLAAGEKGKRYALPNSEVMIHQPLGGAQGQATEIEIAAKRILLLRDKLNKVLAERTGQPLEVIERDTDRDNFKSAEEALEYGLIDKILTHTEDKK
#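 ClpP 10 microg/mL final, pH 8 Tris/KCl buffer with BSA, glycerol, Tween-20; compound pinned in; FRET-FV substrate; RT 20 min; Ex320/Em430; ΔFRET vs ADEP 5.8 microM, DMSO, no enzyme.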
# TRPV1 PAM – enhances activation of the human vanilloid receptor TRPV1. Q8NER1. TRPV1-expressing cells, Fluo-8 calcium influx, capsaicin EC20 potentiation; host cell line not named in the record; control for the full effect not named in the record. potentiation, % at 8.33 µM. hit rate 0.02% among 320,000. AID 540277; active means potentiation above 80%; inconclusive means 30% to 80%; inactive means below 30%; note: 0% is about no effect
#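 Cells expressing TRPV1 were dye-loaded with Fluo-8 and read kinetically: 10 s baseline, 3 min after compound (agonist portion), then 2 min after EC20 capsaicin (allosteric enhancer portion). Calcium-bound dye fluorescence at 480/520 nm.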
# Starred values were filed as active, the others as inactive; ? = inconclusive; / = no result given; & = joins results of further samples; [ ] = remark or other dose. Some of the compounds tested; count on the stated rates, not on these rows.
molecule	gsp ag	Sfp inh	Menin MLL FP FL	D2 potentiator	TRPV1 PAM	ClpP mod	gsp antagonist
C[C@@H]1CN([C@@H](C)CO)C(=O)CCCn2nncc2CO[C@H]1CN(C)C(=O)Oc1ccccc1	-24%	/	/	-2	/	-0.4%	/
COc1ccc(C(=O)C2CCCN(C3CSCCSC3)C2)c(C)c1 (centres undefined)	-15%	22%	0.8	-15	-10	/	-6%
CN(C)c1ccc(N=Cc2c(O)n(CCC3=CCCCC3)c(=O)[nH]c2=O)cc1	-11%	7%	?	-10	7	0.0%	0%
C(=NN1CCCCCC1)c1c[nH]c2ccccc12	23%	/	/	-5	/	/	2%
COC(=O)C1=C(c2ccc(OC)c(OC)c2)C[C@@H]2CC[C@H]1N2C(=O)NCCOc1ccccc1	/	/	/	-7	2	0.8%	4%
O=S(=O)(c1ccc(F)cc1)N1CN2CCN(C2)C1	2%	22%	5.7	-20	?	-1.7%	8%
CN1C(=O)C(C)(C2=CCCCC2)C(=O)NC1=S (centres undefined)	-12%	/	/	-5	/	1.0%	3%
Cc1cccc(OCCNc2ncccc2[N+](=O)[O-])c1	9%	/	/	-3	/	1.6%	/
c1ccc(Cn2ccnc2)cc1	/	12%	-4.0	-3	-3	1.4%	10%
COC(=O)C1=C(c2cc3ccccc3s2)C[C@@H]2CC[C@H]1N2C(=O)NC1CCCCC1	-79%[inhibitor]	/	/	-17	/	0.6%	-19%
CN1CCN(c2ccccc2NC(=O)c2ccc(-c3ccc(Cl)c(Cl)c3)o2)CC1	28%	7%	/	-3	25	-1.4%	-11%
CC(C)Cc1nnc(NC(=O)CCC(=O)N2CCC3(CC2)OCCO3)s1	-1%[15.4 µM]	13%	2.4	-9	6	/	-1%
COC(=O)C(O)(c1ccc(NC(=S)NC(=O)c2ccccc2)cc1)C(F)(F)F (centres undefined)	-30%	-16%	-3.1	-17	-10	0.5%	-6%
Cc1noc(C)c1CSc1nc2cc(S(=O)(=O)N3CCOCC3)ccc2o1	3%	20µM*	-0.2	2	-4	0.7%	13%
CN(C)P(=O)(NC(=O)c1cccn1C)N(C)C	-5%[15.4 µM]	-9%	-1.2	0	6	-5.3%	-7%
CC1(C)CC(=O)C2=C(C1)NC(=O)C21C(C(=O)OC(C)(C)C)=C(N)Oc2ccc(Br)cc21 (centres undefined)	-8%	11%	2.0	-7	4	2.7%	6%
OC[C@H]1O[C@@H](n2cnc3cc(Cl)c(Cl)cc32)[C@H](O)[C@@H]1O	/	/	/	-22	-5	1.2%	1%
Nc1c2c(nc3sc4c(c13)CCCC4)CCCCC2	-17%	-17%	3.8	-23	-33	-3.8%	6%
COc1ccc(C2c3c(nc(C)[nH]c3=O)Oc3c2c(=O)oc2ccccc32)cc1 (centres undefined)	-42%[inhibitor]	24%	5.4	-3	-4	-0.7%	-6%
CCc1cc(=O)oc2cc(OCC(=O)N3C[C@H]4C[C@@H](C3)c3cccc(=O)n3C4)ccc12	/	19%	1.4	-28	1	5.2%	-5%
COc1ccc(-c2nn(CCC#N)cc2C(=O)Nc2ccc(C(C)=O)cc2)cc1[N+](=O)[O-]	-6%	11%	3.4	1	-6	/	5%
C=CCn1c(O)c(C(C)=Nc2ccc(N(C)C)cc2)c(=O)[nH]c1=O	-2%	?	0.3	0	-22	-0.8%	-11%
Cc1ccc(OCC(=O)N2CCN(Cc3cccnc3)CC2)cc1	3%	?	0.8	-3	3	0.9%	5%
CCn1nc(-c2ccccc2)nc2c(=O)n(C)c(=O)nc1-2	?	22%	?	16	1	0.2%	-9%
CSc1ccc(C(=O)C2CCCN(Cc3cnc(SC)nc3)C2)cc1 (centres undefined)	3%	4%	-4.7	-16	-8	/	-12%
Cc1cc(C)nc(NS(=O)(=O)c2ccc(NC(=S)NC(=O)C3CCCC3)cc2)n1	7%	-10%	-0.8	-9	-2	0.3%	-8%
CC(Oc1ccc(-c2ccccc2)cc1)C(=O)O (centres undefined)	9%	18%	3.1	-15	-6	-0.4%	-7%
Fc1cccc(CCNCc2ccccn2)c1	5%	56µM*	-0.5	-19	?	-3.6%	15%
C=CCN1C(=O)NC(=O)/C(=C/c2c(CCN(C)C(=O)c3ccccc3)cc3c(c2OC)OCO3)C1=O	-45%[inhibitor]	-6%	-13	-3	23	-2.5%	-3%
O=C1NCCCCC1(Cl)Cl	20%	/	/	3	/	/	8%
Nc1cc2nc3ccccc3nc2cc1N	13%[15.4 µM]	?	?	1	-11	-0.7%	-7%
[O-]/[N+](=C/c1cccnc1)c1ccc(Br)cc1	-3%	13µM*	1.9	-11	1	-2.6%	2%
COC(=O)C1=CO[C@@H](C)[C@H]2CN3CC[C@]4(C(=O)Nc5ccccc54)[C@@H]3C[C@H]12	/	/	/	-4	/	-3.8%	5%
O=P(NS(=O)(=O)c1ccccc1)(Oc1ccccc1)Oc1ccccc1	26%	29%	1.0	15	12	0.3%	1%
NC(N)=N/N=C/c1cn(-c2ccccc2)nc1-c1cccs1	-55%[inhibitor]	79µM*	0.9	-9	-5	-23%	5%
NCC(=O)c1ccccc1	/	5%	-0.2	-11	/	1.3%&3.9%	-1%
CCOc1ccc2c(c1)c(C(C)=O)c(C)n2Cc1ccco1	7%	12%	-2.1	4	-1	-2.3%	6%
Cc1ccc2c(c1)CNc1ccccc1O2	-29%	4%	3.2	-14	/	1.1%	-4%
CCC(C)N1C(=O)/C(=C/c2ccc3c(c2)CCN3CCCCl)C(=O)NC1=S (centres undefined)	11%	?	?	-6	-44	-3.1%	-17%
N/C(=N\N=C/c1ccc(-c2ccc(O)c(C(=O)O)c2)o1)N[N+](=O)[O-]	?	50µM*	9.7	-5	-21	-11%	-2%
COc1c(C)cc(C(=O)C2CCCN(Cc3cccc(O)c3)C2)cc1C (centres undefined)	-33%[inhibitor]	11%	-0.2	-3	21	-0.1%	-3%
N#CC(CCN1CCOCC1)(c1ccccc1)c1ccccc1	0%	13%	/	-7	-16	0.6%	4%
COC(=O)C1=C(c2ccc(OC(F)(F)F)cc2)C[C@@H]2CC[C@H]1N2C(=O)NCc1cc(C)oc1C(F)(F)F	-26%	/	/	-3	8	1.2%	-10%
Cc1ccccc1NC(=O)c1cc(-c2ccccc2)n(CCCN2CCOCC2)c1C	3%	7%	-1.4	-7	-6	/	-6%
Cc1ccc(C(=O)Nc2ccc(-n3ccnc3P(=O)(O)c3ccccc3)cc2)cc1	10%	11%	-5.2	-7	-13	-0.2%	8%
COc1cccc2c1N=C1CCCC3CN(C(C)=O)CCC123 (centres undefined)	1%	/	/	4	/	/	-3%
O=c1[nH]c(=O)n(-c2ccc(F)cc2)c(O)c1C=Nc1ccccc1N1CCCC1	?	4%	?	-7	7	2.4%	0%
CC1CCN(S(=O)(=O)c2ccc(NN=C(C#N)C#N)cc2)CC1	/	16%	1.9	/	-1	/	/
O=[N+]([O-])c1ccc(Cl)cc1	/	/	/	2	16	0.8%	9%
COc1ccc(NC(=O)CCOc2cc(C)ccc2C)cc1S(=O)(=O)N1CCCCC1	2%[15.4 µM]	/	/	-15	/	0.6%	?

# Brought forward from above: 3 compounds, then new ones.
molecule	gsp ag	Sfp inh	Menin MLL FP FL	D2 potentiator	TRPV1 PAM	ClpP mod	gsp antagonist
CC1CCN(S(=O)(=O)c2ccc(NN=C(C#N)C#N)cc2)CC1	/	16%	1.9	/	-1	/	/
O=[N+]([O-])c1ccc(Cl)cc1	/	/	/	2	16	0.8%	9%
COc1ccc(NC(=O)CCOc2cc(C)ccc2C)cc1S(=O)(=O)N1CCCCC1	2%[15.4 µM]	/	/	-15	/	0.6%	?
CCN1CCN(C(=O)COc2ccc(S(=O)(=O)N3CCOCC3)cc2Cl)CC1	-9%[15.4 µM]	12%	-3.8	-15	-5	0.4%	11%
CCOC(=O)c1c(-n2c(C)cc(/C=C3\C(=O)NC(=O)N(C)C3=O)c2C)sc2c1CCCC2	?	?	2.6	-7	-8	-0.4%	-15%
O=c1[nH]c(=O)n(-c2ccc(Br)cc2)c(O)c1C=NCCN1CCCCC1	-2%[15.4 µM]	24%	28	-12	11	/	0%
COC(=O)C1=C(c2cccc(C#N)c2)C[C@@H]2CC[C@H]1N2C(=O)NCc1ccc(F)cc1	-34%[inhibitor]	/	/	-4	6	2.8%	4%
CCOS(C)(=O)=O	/	/	/	-1	5	-0.1%	3%
CN1c2ccccc2Oc2ccccc21	-18%	-7%	/	3	6	?	7%
O=[N+]([O-])c1ccc(N2CCNCC2)cc1N1CCCCC1	-5%	14%	-1.7	-17	15	-2.2%	3%
COc1cccc(-n2c(O)c(C=NCc3ccc4c(c3)OCO4)c(=O)[nH]c2=O)c1	-21%	7%	-1.9	-10	-12	0.7%	6%
COC(=O)C1=C(c2ccc(-c3ccccc3)c(F)c2)C[C@@H]2CC[C@H]1N2C(=O)N1CCC(O)CC1	/	/	/	-16	-12	-0.7%	-15%
COC(=O)C1=C(c2c(C)noc2C)C[C@@H]2CC[C@H]1N2C(=O)NC1Cc2ccccc2C1	?	/	/	-11	-19	-0.5%	6%
O=C1c2ccccc2C(=O)N1SC1CCCCC1	-56%[inhibitor]	10µM*	0.2	-20	2	0.4%	19%
COc1ccc2c(c1)NP(=S)(c1ccccc1)N2C (centres undefined)	-1%	/	/	-8	/	/	1%
CCCOc1ccc(C(=O)NC(=S)N2C[C@H]3C[C@H](C2)c2cccc(=O)n2C3)cc1	/	45µM*	2.7	-17	20	-4.5%	0%
